# High-throughput results from PubChem BioAssay.
# Polio RdRp inh = poliovirus RdRp elongation inhibitors, primary screen, biochemical, fluorescence polarization, total intensity. Genome polyprotein (Poliovirus type 1 (strain Mahoney)), P03300. poliovirus polymerase elongation; hits give low values. % elongation, % (compound at 16.7 µg/mL). 150,000 compounds, 0.66% hits; in the data active means % elongation below about 90%; further: some results filed as inactive read as strong as hits
# Target sequence (P03300 1749-2209 limits assumed): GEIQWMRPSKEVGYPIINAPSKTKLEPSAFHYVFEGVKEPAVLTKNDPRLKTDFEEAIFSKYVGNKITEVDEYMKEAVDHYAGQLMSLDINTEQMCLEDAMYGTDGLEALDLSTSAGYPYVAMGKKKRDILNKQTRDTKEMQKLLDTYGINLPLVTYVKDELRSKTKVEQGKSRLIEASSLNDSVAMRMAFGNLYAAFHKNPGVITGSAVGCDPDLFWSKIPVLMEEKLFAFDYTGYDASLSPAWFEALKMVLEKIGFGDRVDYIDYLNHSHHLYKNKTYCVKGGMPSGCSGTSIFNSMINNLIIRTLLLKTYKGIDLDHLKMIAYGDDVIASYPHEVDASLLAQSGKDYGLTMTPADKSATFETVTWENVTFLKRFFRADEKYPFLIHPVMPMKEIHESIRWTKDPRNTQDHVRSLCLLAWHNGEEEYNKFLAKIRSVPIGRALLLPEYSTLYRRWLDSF
# Mtb MbtI inh = MbtI salicylate synthase inhibitors, primary screen, biochemical, fluorescence intensity; 100,000 compounds, 0.89% hits; purified MbtI enzyme, fluorescence intensity read-out; inhibition, %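 (about 17 µg/mL by stock and volumes)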;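 active means above 50% in both replicates, above 80% if mildly self-fluorescent; inactive means the rest, strongly fluorescent compounds included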;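 further: 0% = mean of negative and 100% = mean of positive controls; one replicate is shown; some compounds called inactive have numbers as strong as hits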
# Target sequence (P9WFX0 whole entry, looked up): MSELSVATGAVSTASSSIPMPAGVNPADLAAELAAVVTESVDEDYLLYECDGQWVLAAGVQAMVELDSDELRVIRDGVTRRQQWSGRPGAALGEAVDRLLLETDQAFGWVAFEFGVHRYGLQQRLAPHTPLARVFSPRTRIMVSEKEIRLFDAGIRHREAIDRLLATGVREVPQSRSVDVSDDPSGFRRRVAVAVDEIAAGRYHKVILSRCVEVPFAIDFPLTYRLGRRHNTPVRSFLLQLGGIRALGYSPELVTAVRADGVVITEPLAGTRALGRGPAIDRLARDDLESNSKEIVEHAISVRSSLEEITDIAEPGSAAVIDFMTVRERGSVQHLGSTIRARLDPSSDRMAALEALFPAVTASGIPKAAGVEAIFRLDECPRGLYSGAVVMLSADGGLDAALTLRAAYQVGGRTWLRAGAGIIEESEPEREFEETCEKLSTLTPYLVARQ
# Mtb MenB inh = M. tuberculosis MenB inhibitors, primary screen, biochemical, absorbance; AID 540299, 2011; inhibition, %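 (about 12 µg/mL by stock and volumes)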; 1,4-dihydroxy-2-naphthoyl-CoA synthase (Mycobacterium tuberculosis (strain ATCC 25618 / …; 100,000 compounds, 0.43% hits; MenB enzyme assay, absorbance read-out; some hits fall short of the stated cut;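 active means mean of two replicates above 30%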;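 further: 0% = no compound and 100% = wells with inactive enzyme; the first replicate is given; strong numbers were not always called active; inactives centre near -10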
# Polio RdRp inh intensity = recorded beside Polio RdRp inh, whose call it bears; % elongation; measured here: total intensity read-out; formula for this scale not given here;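 total fluorescence in place of polarization; lower means less elongation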
# * hit, by the source's call; i = inactive; · = not tested or not shown; & = joins results of further samples. Compounds were not picked by outcome; about 2% have a hit in one of these screens.
SMILES,Polio RdRp inh,Polio RdRp inh intensity,Mtb MbtI inh,Mtb MenB inh
CCc1c(C#N)c(SCC(=O)c2cc(C)n(CCOC)c2C)nc2c1C(=O)CC(C)(C)C2,99,107,2,-43
NS(=O)(=O)c1ccc(-c2ccc(/C=N/NC(=O)c3cccnc3)o2)cc1,103,104,67,-30
COCCNc1nnc(SCN2C(=O)c3ccccc3C2=O)s1,107,106,10,4
NC(=O)CN1C(C(=O)c2ccccc2)=C(N2CCOCC2)c2ccccc2S1(=O)=O,102,102,10,-58
COc1ccc(C(=O)C2CCN(CC(=O)NCc3ccc(F)cc3)CC2)cc1,99,103,-3,20
Cc1ccc(-c2csc(/C(C#N)=C(\O)CSc3ncn[nH]3)n2)cc1,103,99,38,10
C1N2CN3CN1CN(C2)C3,103,102,-20,4
O=C(Nc1ccc(OC(F)(F)F)cc1)N1CCN(C(c2ccccc2)c2ccccc2)CC1,103,110,-11,3
COc1ccc(C(=O)OCC(=O)N2CC(C)CC(C)C2)cc1 (stereo unspecified),101,107,-4,·
CC(=O)Nc1ccc(SCC(=O)/C(C#N)=C(\C)N)cc1,103,111,22,4
COc1ccccc1NC(=O)N=S1CCN(C(=O)c2ccc(Cl)cc2)CC1,100,101,2,9
C=CCN(CC=C)C(=O)C[n+]1ccc(C(N)=O)cc1,103,109,0,-15
CNCC(=O)NC(c1ccccc1)c1ccccc1,103,100,-13,13
CCn1nnnc1SCC(=O)Nc1ccccc1,102,102,-8,17
CCc1ccc(NC(=O)CCS(=O)(=O)c2ccc3c(c2)NC(=O)CS3)cc1,101,103,-18,-11
COc1ccc(NC(=O)C(NS(=O)(=O)c2ccc3c(c2)c(=O)n(C)c(=O)n3C)c2ccccc2)cc1 (stereo unspecified),101,101,-3,-12
O=C(O)CC1C(=O)NC(=Nc2ccccc2)N1c1ccccc1 (stereo unspecified),102,109,-9,-24
CCOc1ccc(Cc2nccc3cc(OCC)c(OCC)cc23)cc1OCC,99&101,99&99,-14&-14,-4&-1
CN(C(=O)C1c2ccccc2C(=O)N2CCc3ccccc3C12)C1CCCCC1 (stereo unspecified),103,105,-12,-13
CCOC(=O)N1CCC(NC(=O)CN2C(=O)CCSc3ccccc32)CC1,102,102,-5,-5
Cc1nn(-c2ccccc2)c(C)c1Sc1ccccc1,104,108,-8,-22
CCOC(=O)C1CCCN(S(=O)(=O)Cc2ccccc2Cl)C1 (stereo unspecified),104,103,-14,-12
COc1ccc(C(=O)NNc2ncnc3c2cnn3-c2ccc(F)cc2)cc1,100,100,7,-28
COc1ccc(N2C(=NC(=O)CCCC(=O)O)SC3CS(=O)(=O)CC32)cc1 (stereo unspecified),100,102,-5,2
O=C(Nc1ccc(Cl)cc1)Nc1ccc(N2CCOCC2)cc1,102,105,3,0
CCn1c(O)c(C=NCCn2c(C)nc3ccccc32)c(=O)n(CC)c1=S,99,105,0,-42
COc1cc(C(=O)NNC2=CC(=O)CC(C)(C)C2)cc(OC)c1OC,103,109,4,-30
COc1ccc(C=Nc2ccc(OCC(O)CN3C(C)CCCC3C)cc2)cc1OC (stereo unspecified),99,100,17,0
CC1(C)CNC(=O)C=C(c2ccccc2)C1,102,104,15,·
COc1cccc(CNC(=O)c2cn(C)c(=O)c3c2c2ccccc2n3C)c1,104,103,6,-18
Cc1cc(=O)oc2c(/C=N/c3ccccn3)c(O)ccc12,88*,95*,32,-23
COc1cccc(NC(=O)Nc2nncs2)c1,101,94,·,-15
Cc1c(C)c(C)c(CS(=O)(=O)CC(=O)Nc2ccc(F)c(Cl)c2)c(C)c1C,102,106,-1,6
CCN(CC)C(=O)CSc1nc2ccccc2cc1C,103,98,-4,-5
CC(C)n1c(/C=C/[C@@H](O)C[C@@H](O)CC(=O)O)c(-c2ccc(F)cc2)c2ccccc21,100,100,-457,0
COc1ccc(NC(=O)CSC2=C(C#N)C(c3ccccc3C)C3=C(CCCC3=O)N2)cc1 (stereo unspecified),103,103,14,-5
CCC(C(=O)Nc1ccccc1O)c1ccccc1 (stereo unspecified),99,99,-5,-33
S=c1[nH]c2ccc(Cl)cc2o1,100,99,64*,-53
O=C(O)CCC(=O)Nc1ccccc1N1CCCCC1,100,101,8,-2
O=C1Nc2ccccc2/C1=N\N1CCN(Cc2cccc3ccccc23)CC1,101,103,0,-79

# Nothing new here: entries from further up.
SMILES,Polio RdRp inh,Polio RdRp inh intensity,Mtb MbtI inh,Mtb MenB inh
CCc1c(C#N)c(SCC(=O)c2cc(C)n(CCOC)c2C)nc2c1C(=O)CC(C)(C)C2,99,107,2,-43
NS(=O)(=O)c1ccc(-c2ccc(/C=N/NC(=O)c3cccnc3)o2)cc1,103,104,67,-30
COCCNc1nnc(SCN2C(=O)c3ccccc3C2=O)s1,107,106,10,4
NC(=O)CN1C(C(=O)c2ccccc2)=C(N2CCOCC2)c2ccccc2S1(=O)=O,102,102,10,-58
COc1ccc(C(=O)C2CCN(CC(=O)NCc3ccc(F)cc3)CC2)cc1,99,103,-3,20
Cc1ccc(-c2csc(/C(C#N)=C(\O)CSc3ncn[nH]3)n2)cc1,103,99,38,10
C1N2CN3CN1CN(C2)C3,103,102,-20,4
O=C(Nc1ccc(OC(F)(F)F)cc1)N1CCN(C(c2ccccc2)c2ccccc2)CC1,103,110,-11,3
COc1ccc(C(=O)OCC(=O)N2CC(C)CC(C)C2)cc1 (stereo unspecified),101,107,-4,·
CC(=O)Nc1ccc(SCC(=O)/C(C#N)=C(\C)N)cc1,103,111,22,4
COc1ccccc1NC(=O)N=S1CCN(C(=O)c2ccc(Cl)cc2)CC1,100,101,2,9
C=CCN(CC=C)C(=O)C[n+]1ccc(C(N)=O)cc1,103,109,0,-15
CNCC(=O)NC(c1ccccc1)c1ccccc1,103,100,-13,13
CCn1nnnc1SCC(=O)Nc1ccccc1,102,102,-8,17
CCc1ccc(NC(=O)CCS(=O)(=O)c2ccc3c(c2)NC(=O)CS3)cc1,101,103,-18,-11
COc1ccc(NC(=O)C(NS(=O)(=O)c2ccc3c(c2)c(=O)n(C)c(=O)n3C)c2ccccc2)cc1 (stereo unspecified),101,101,-3,-12
O=C(O)CC1C(=O)NC(=Nc2ccccc2)N1c1ccccc1 (stereo unspecified),102,109,-9,-24
CCOc1ccc(Cc2nccc3cc(OCC)c(OCC)cc23)cc1OCC,99&101,99&99,-14&-14,-4&-1
CN(C(=O)C1c2ccccc2C(=O)N2CCc3ccccc3C12)C1CCCCC1 (stereo unspecified),103,105,-12,-13
CCOC(=O)N1CCC(NC(=O)CN2C(=O)CCSc3ccccc32)CC1,102,102,-5,-5
Cc1nn(-c2ccccc2)c(C)c1Sc1ccccc1,104,108,-8,-22
CCOC(=O)C1CCCN(S(=O)(=O)Cc2ccccc2Cl)C1 (stereo unspecified),104,103,-14,-12
COc1ccc(C(=O)NNc2ncnc3c2cnn3-c2ccc(F)cc2)cc1,100,100,7,-28
COc1ccc(N2C(=NC(=O)CCCC(=O)O)SC3CS(=O)(=O)CC32)cc1 (stereo unspecified),100,102,-5,2
O=C(Nc1ccc(Cl)cc1)Nc1ccc(N2CCOCC2)cc1,102,105,3,0
CCn1c(O)c(C=NCCn2c(C)nc3ccccc32)c(=O)n(CC)c1=S,99,105,0,-42

# Next results follow:
SMILES,Polio RdRp inh,Polio RdRp inh intensity,Mtb MbtI inh,Mtb MenB inh
O=C(O)c1c(CNCCc2ccc(Cl)cc2)c2ccccc2n1Cc1ccccc1,103,103,-6,-28
CCCCSc1nnc(CSc2ncccn2)n1CCc1ccccc1,102,105,43,-27
COc1ccc(Nc2ccccc2Cl)cc1,101,107,-6,·
COC(=O)Nc1nnc(COc2cccc(C)c2)s1,101,99,3,-10
N#Cc1cccc(C(=O)NC2CCCC2)c1,103,105,-4,-22
O=C(c1ccncc1)N1CCN(C(=O)c2ccncc2)CC1,101,99,-5,-11
O=C1N/C(=N\S(=O)(=O)Cc2ccccc2)S/C1=C\c1ccco1,102,106,28,-93
Cc1ccc(-c2ccc(C#N)c(=O)n2CC(=O)N2CCNC(=O)C2(C)C)cc1,99,103,89,17
O=C(Cn1cnc2ccccc2c1=O)Nc1ccccc1,103,102,-8,-20
O=C(CSc1nc2ccccc2c(=O)n1-c1ccccc1)NC1CCCCC1,99,94,-5,·
CC(C)=C1SC(=O)NC1=O,98,108,31,-9
CCC(C(=O)c1ccccc1)n1nc(-c2cccs2)ccc1=O (stereo unspecified),101,99,3,-50
Cc1ccc(SCc2[nH]n(-c3nc4ccccc4s3)c(=O)c2C=NCc2ccco2)cc1,102,106,0,-15
c1nc(NCCCN2CCOCC2)c2c3c(sc2n1)CCCC3,107,106,0,-7
CCc1ccc(-n2c(N(C)Cc3ccccc3)nc3ccccc3c2=O)cc1,103,98,24,-7
O=C(/C=C/c1ccccc1)Oc1ccccc1,104,99,5,-11
Cc1ccc(-n2c(C)nnc2SCc2nc(-c3ccc(Cl)cc3)no2)cc1C,102,106,-16,-39
OCCN=Cc1[nH]c2ccccc2c1O,72,159,-49,i
O=C(O)P(=O)(O)O,98,104,-19,5
O=C(N/N=C\c1ccncc1)c1ccc(COCC(F)(F)F)cc1,102,102,20,6
CCc1nnc(NC(=O)CCc2cccs2)s1,98,99,-6,-8
CCOc1ccc(CCNC(=O)C2=C(C)C(=O)OC23CCC(C)CC3)cc1 (stereo unspecified),102,105,5,-9
COc1ccc(Oc2coc3cc(OC(=O)N4CCOCC4)ccc3c2=O)cc1,102,107,-2,-17
O=C(/C=C/c1ccco1)N/C(=C\c1ccc2c(c1)OCO2)C(=O)N1CCCCCC1,104,104,13,-25
C[C@H]([C@H](C)N1CC(=O)NC(=O)C1)N1CC(=O)NC(=O)C1,100&97,102&100,4,0
CCOC(=O)C1=C(c2ccccc2)OC(N)=C(C#N)C1c1ccncc1 (stereo unspecified),100,104,53,7
O=c1cc(Cn2ncc(Cl)c(Cl)c2=O)[nH]c(=O)[nH]1,93,98,-1,-19
Cn1cc(NC(=O)N2CCCc3ccccc32)c2ccccc2c1=O,101,101,13,-1
O=C(O)/C=C/C(=O)N1CCN(c2ncnc3scc(-c4ccccc4)c23)CC1,101,102,2,1
CS(=O)(=O)N1CCCc2cc(C(=O)N(CC(=O)Nc3ccccc3C(F)(F)F)Cc3ccco3)ccc21,102,105,-6,-2
CC1CCCCN1c1nc2ccccc2n2cnnc12 (stereo unspecified),102,100,0,-18
Cc1cc(=O)n2ncnc2n1CC(=O)NN,111,108,1,-12
CCCNC(=O)Nc1ccc2nc(N3CCN(C)CC3)cc(C)c2c1,99,101,109,4
COc1ccc(CNc2nc(-c3cccs3)c(C#N)c(=O)n2C)cc1,105,110,98,8
O=C(COc1ccccc1)NCc1ccncc1,106,116,·,-15
CCNS(=O)(=O)c1ccc2c(c1)oc(=O)c1cc(S(=O)(=O)NCC)ccc12,108,107,6,-25
Cc1ccsc1/C=N/NC(=O)CSc1nnc(-c2ccccc2)n1-c1ccccc1,102,101,-6,-23
C=CCN(C(=O)CSc1nnc(CC)n2c1cc1oc(C)cc12)c1ccccc1,101,103,3,45*
Cc1cccc(-c2nnc(SCC(=O)C34CC5CC(CC(C5)C3)C4)n2Cc2ccco2)c1,107,111,-1,-7
CC(C)CC(=O)Nc1ccc(C(=O)Cn2nnc(-c3ccccc3)n2)cc1,106,111,4,7
Cc1cc(=O)n(CC(=O)NC2CCCCC2)c2c1c(C)nn2-c1ccccc1,100,102,4,3
CC(C)C(=O)c1cn(CC(=O)NCc2cccs2)c2ccccc12,98,100,8,27
Cc1cc(C(=O)O/N=C/c2c(Cl)cccc2Cl)nn1C,99,103,13,7
CCN(CC)S(=O)(=O)c1cccc(C(=O)NN)c1,100,98,·,-5
CNC(=O)Cn1nc(C)c(S(=O)(=O)N(C)C)c1C,104,109,-11,-20
CC1CC/C(=C/c2ccc(Cl)cc2)C(=O)C1 (stereo unspecified),103,109,-4,·
CC(C)N1CCN(Cc2ccc(F)cc2)CC1,106,97,·,8
CCOc1ccc(N(CC(=O)NN=C2CCCCC2)S(C)(=O)=O)cc1,105,101,-1,-24
O=C(Cn1nc(-c2ccc(Cl)cc2)ccc1=O)NC1CCCC1,100,101,51,-4
O=C(Nc1ccccc1)Nc1ccccc1Sc1nccc(C(F)(F)F)n1,101,98,1,2
O=C(c1ccccc1)c1cnc2cc3c(cc2c1N1CCN(c2ccccc2)CC1)OCCO3,103,106,-6,-18
CC(C)(C)C1CCC2(CC1)C(C#N)C2(C#N)C(=O)c1ccccc1 (stereo unspecified),108,100,·,-21
CCC(C)NC(=O)NCc1c(C)nn(C)c1C (stereo unspecified),102,104,-18,-7
Cc1[nH]c2ccccc2c1C(=O)C(C)OC(=O)C1CC1 (stereo unspecified),106,111,10,0
O=C1C2C(C(=O)N1C13CC4CC(CC(C4)C1)C3)C1C=CC2C12CC2 (stereo unspecified),101,100,-8,-18
COc1ccc(Cl)cc1NC(=O)c1cnn(-c2ccc(F)cc2)c1C1CCNCC1,104,98,9,5
Cc1ccc(-c2nn(-c3ccccc3)cc2C(=O)N2CCCc3ccccc32)o1,107,102,14,-25
